Tg IFNy HTS – T. gondii growth inhibition with IFN-gamma, primary screen, cell-based. actives 3.8% (n = 69,000). AID 1259416, 2018. activity change, negative = inhibition, %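 (about 20 µM by stock and volumes)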. Toxoplasma gondii growth in IFN-gamma-treated host cells; stronger effect = lower value; reference of the scale not given here;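 active = below -70%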;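 also: host cells are HeLa cells infected with Toxoplasma gondii; parasite growth read as luciferase light; one replicate is shown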
Numbers without * were called inactive; i = inactive.

SMILES	Tg IFNy HTS
COc1ccc(CCN(C)Cc2nc(Cc3ccc(OC)c(OC)c3)no2)cc1OC	5
COc1ccc(-c2nc(C)c(CCNC(=O)c3cccc(C)c3)s2)cc1OC	i
CC(=O)Nc1nc2c(c3c1c(=O)oc1ccccc13)CCCCC2	-33
Cc1cc(C(=O)N2CCC(c3nn(C)c(=O)n3-c3ccccc3)CC2)no1	90
N#Cc1ccc(N2CC3(CCN(C(=O)c4cnccn4)C3)CC2=O)cc1 (stereo unspecified)	115
Cn1c(=O)oc2cc(NC(=O)CC3CCN(C4CCCCC4)CC3)ccc21	-38
O=C(NCCCl)N(CCCl)[NH2+][O-]	38
CCc1noc(CN(CC)Cc2ccc3cccc(O)c3n2)n1	-27
C=CCNc1nc(C2(c3ccccc3)CCCC2)cs1	30
O=C(Cc1ccc(N2CC(C(=O)O)CC2=O)cc1)NC1CC1 (stereo unspecified)	3
CN(C[C@@H]1[C@H](c2ccccc2)[C@@H](CO)N1Cc1ccccn1)S(C)(=O)=O	2
c1cncc(N2CCOC3CCN(Cc4cccs4)CCC32)c1 (stereo unspecified)	-52
CCCCNC(=O)OCCOc1cc(C(F)(F)F)ccn1	-6
CC[C@@H]1C[C@H](C(F)(F)F)n2nc(C3CCN(C(=O)c4cc(C(C)C)on4)C3)cc2N1 (stereo partly specified)	242
CCc1nnc(SCC(=O)O)n1N	2
COc1ncccc1CN1CCN2C[C@@H](OCc3ccccn3)C[C@@H]2C1	11
Cc1ccc2c(c1C)-n1cccc1C1(CCN(S(=O)(=O)c3ccc(Br)s3)CC1)N2	17
CCN(Cc1nccn1C)C(=O)c1ccc(-c2cc3ccccc3o2)nc1	-15
CCOc1ccc(-c2nc(Cn3ccn4nc(-c5ccc(C)cc5)cc4c3=O)c(C)o2)cc1OC	83
C=CCN1C(=O)C(CCC(=O)O)NC1=S (stereo unspecified)	-9
CCN1CC(Cn2ccnc2-c2cc3c(cc2OC)CCC3)CC1=O (stereo unspecified)	51
O=C(O)COCC(=O)NCCN1CCNC1=O	2
Cn1cnnc1SC/C=C/c1ccccc1	-47
CCOc1ccc(CNc2ncn[nH]2)cc1	20
CCC(=O)N1C[C@H](C)[C@H](OC)CN(C)C(=O)c2ccc(NC(=O)CC(F)(F)F)cc2OC[C@@H]1C	-15

A different layout for six compounds above:
| SMILES | Tg IFNy HTS |
| --- | --- |
| CCOc1ccc(-c2nc(Cn3ccn4nc(-c5ccc(C)cc5)cc4c3=O)c(C)o2)cc1OC | 83 |
| C=CCN1C(=O)C(CCC(=O)O)NC1=S (stereo unspecified) | -9 |
| CCN1CC(Cn2ccnc2-c2cc3c(cc2OC)CCC3)CC1=O (stereo unspecified) | 51 |
| O=C(O)COCC(=O)NCCN1CCNC1=O | 2 |
| Cn1cnnc1SC/C=C/c1ccccc1 | -47 |
| CCOc1ccc(CNc2ncn[nH]2)cc1 | 20 |

(listing goes on)
SMILES	Tg IFNy HTS
Cc1cc2c(cc1-c1c(-c3ccccc3)ncn1CCS(C)(=O)=O)OCO2	-2
COCCCN1CCN(C(=O)CC(=O)Nc2ccccc2C)CC1	5
COCCN1Cc2cccc(C(=O)N3CCC(CCn4ccnc4C)CC3)c2C1=O	13
CCC(=O)N1C[C@H]2[C@@H](c3ccccc31)[C@@H](CO)N2Cc1ccc(F)cc1	3
CC(C)N1C2COCC1CN(Cc1cccc(F)c1)C2	-12
CCN1c2cc(C)ccc2-n2cccc2C12CCN(C(=O)Nc1cccc(Cl)c1)CC2	-82*
O=c1cc(CSc2n[nH]c(=O)n2Cc2ccco2)c2ccc(O)cc2o1	36
CNC(=O)CCN(C)c1nc(-c2cccnc2)nc2c1cnn2C	-12
CCN1C(=O)C(c2ccccc2)CC12CCN(c1ncccn1)CC2 (stereo unspecified)	2
Cc1[nH]c2ccc(CNC(=O)Cn3ccnc3C(C)C)cc2c1C	-1
Cc1ccc(S(=O)(=O)N2C[C@@H](O)COC[C@H]3O[C@H](CC(=O)NCc4ccc5c(c4)OCO5)CC[C@@H]32)cc1	-22
COc1ccc(N(Cc2cccnc2)C(=O)c2ccccc2Cn2ccnc2)cc1	-5
CCC1CN(Cc2ccc(OCC(N)=O)c(Cl)c2)CCN1C(C)C (stereo unspecified)	6
CCS(=O)(=O)N1C[C@H](OCc2cccnc2)[C@@H]2COC[C@@H]21	99
COc1ccc(CCO[C@@H]2CCCC[C@H]2N2CC[C@@H](O)C2)cc1OC	19
COc1cc(OC)c(C2C(C#N)=C(N)OC3=C2C(=O)CC(C)(C)C3)cc1OC (stereo unspecified)	-2
O=C(c1ccccn1)N1CCOCC2(CCN(c3ccccn3)C2)C1 (stereo unspecified)	0
CC1(C)CC2(CCCN(Cc3nc4c(c(=O)[nH]3)C3(CCCCC3)Cc3ccccc3-4)C2)CCO1 (stereo unspecified)	-85*
CCS(=O)(=O)N1CCC2(CC1)OC(=O)C(C)=C2C(=O)N1CCN(c2ccccc2)CC1	21
O=C(Cc1ccccc1)N1CC(=O)N2[C@H](CO)[C@@H](c3ccc(-c4ccc(F)cc4)cc3)[C@H]2C1	-30
CNC[C@@H]1Oc2c(NC(=O)Nc3cccc4ccccc34)cccc2C(=O)N([C@@H](C)CO)C[C@H]1C	-41
Cc1nc(C2CCCCN2Cc2ccccc2)nc2c1CCC(=O)N2Cc1ccccc1 (stereo unspecified)	9
Clc1ccc(OCc2nc(CSc3ccccn3)no2)c(Cl)c1	-4
COCCN(C)C[C@@H]1CCC[C@@H]2CN(c3ncccn3)C[C@H]21	22
C[C@@H]1CN([C@H](C)CO)C(=O)CCCn2cc(nn2)CO[C@H]1CN(C)C(=O)NC1CCCCC1	71

In the list so far, these have an aryl methoxy group:
SMILES	Tg IFNy HTS
COc1ccc(CCN(C)Cc2nc(Cc3ccc(OC)c(OC)c3)no2)cc1OC	5
COc1ccc(-c2nc(C)c(CCNC(=O)c3cccc(C)c3)s2)cc1OC	i
COc1ncccc1CN1CCN2C[C@@H](OCc3ccccn3)C[C@@H]2C1	11
CCOc1ccc(-c2nc(Cn3ccn4nc(-c5ccc(C)cc5)cc4c3=O)c(C)o2)cc1OC	83
CCN1CC(Cn2ccnc2-c2cc3c(cc2OC)CCC3)CC1=O (stereo unspecified)	51
COc1ccc(N(Cc2cccnc2)C(=O)c2ccccc2Cn2ccnc2)cc1	-5
COc1ccc(CCO[C@@H]2CCCC[C@H]2N2CC[C@@H](O)C2)cc1OC	19
COc1cc(OC)c(C2C(C#N)=C(N)OC3=C2C(=O)CC(C)(C)C3)cc1OC (stereo unspecified)	-2

The results go on:
SMILES	Tg IFNy HTS
COc1cccc(N(Cc2nc(-c3ccccc3)oc2C)S(=O)(=O)c2ccccc2)c1	-50
COc1cccc(-c2ccc3n(c2=O)C[C@H]2[C@H](CO)[C@@H](C(=O)NC4Cc5ccccc5C4)N[C@@H]32)c1	7
CS(=O)(=O)N1CCC2(CC1)CN(c1cncnc1)C(=O)CO2	6
CO[C@H]1CN(C)C(=O)c2ccc(NC(=O)Nc3cc(F)ccc3F)cc2OC[C@H](C)N(C(=O)c2ccccn2)C[C@H]1C	-33
CC(Cc1cn(CCCn2ccnc2)nn1)c1ccccc1 (stereo unspecified)	5
CN1CCN(c2ccc(NC(=O)Nc3ccc(C(F)(F)F)cc3)cc2)CC1	1
CCN1CCC2(CC1)OC(=O)C(C)=C2C(=O)N1CCN(c2cccc(OC)c2)CC1	153
CCc1ccccc1NC(=O)N1CCN(Cc2nc(-c3ccc(C)cc3)oc2C)CC1	3
Cc1ccc(C)c(N2CCN(C(=O)c3ccc(-n4nc(C(F)(F)F)c5c4CCCC5)cc3)CC2)c1	1
NC(=S)c1cc(-c2ccccc2)c(C(F)(F)F)s1	-93*
C[C@H]1CN([C@@H](C)CO)S(=O)(=O)c2ccc(C#CCC3CCCC3)cc2O[C@@H]1CN(C)C(=O)c1cnccn1	-53
O=S(=O)(c1ccc(-c2cnco2)cc1)N1CCCC1c1ccc(F)cc1 (stereo unspecified)	-1
COCCN1C(=O)C2(CCN(C(=O)c3cccn3C)CC2)c2ccccc21	-18
COCCn1c(C(=O)NCc2cccs2)cc2c1c1ccccc1n2C	-31
COc1cc2c(cc1OC)C(c1cc(OC)c(OC)c(OC)c1)NCC2 (stereo unspecified)	23
CCn1c(=O)c(C(=O)Nc2nc(C)cs2)c(O)c2ccccc21	29
O=C(O)c1cccnc1CN1CCCC(c2ccccc2)CC1 (stereo unspecified)	3
O=C(COc1cccnc1)N1CCOC(c2ccc(Cl)c(Cl)c2)C1 (stereo unspecified)	-53
c1coc(-c2cnc(NCCN3CCOCC3)nc2-c2ccco2)c1	-4
COc1cccc(CNC(=O)c2nc(Cn3nc(C)c(Br)c3C)no2)c1	0
CN1CC2(CCCN(Cc3ccc(-c4ccc(Cl)cc4)o3)CC2)OC1=O (stereo unspecified)	0
O=C(CC(F)(F)F)N1C[C@@H]2[C@H](c3ccccc31)[C@@H](CO)N2CC1CCOCC1	-1
CCCNC(=O)c1cc2c(c3ccccc3n2CC2CC2)n1C	7
O=C(NO)c1cnc(N2CCN(S(=O)(=O)c3ccc4ccccc4c3)CC2)nc1	-70
c1ccc(-n2cc(C3NCCc4[nH]cnc43)c(-c3ccncc3)n2)cc1 (stereo unspecified)	-13

The last three records of the part above lead into the next.
SMILES	Tg IFNy HTS
CCCNC(=O)c1cc2c(c3ccccc3n2CC2CC2)n1C	7
O=C(NO)c1cnc(N2CCN(S(=O)(=O)c3ccc4ccccc4c3)CC2)nc1	-70
c1ccc(-n2cc(C3NCCc4[nH]cnc43)c(-c3ccncc3)n2)cc1 (stereo unspecified)	-13
CCn1c(C2CCCN(Cc3ccc(S(C)(=O)=O)cc3)C2)nn(C)c1=O (stereo unspecified)	-2
O=C(O)CN1C[C@H]2c3ccccc3C(OCC3CC3)[C@@H]2C1 (stereo partly specified)	-53
COc1ccc(N(C)c2ccc3ccc(C(=O)N4CCCC4)cn23)cc1	-23
CC(c1nncn1-c1ccccc1)n1cccn1 (stereo unspecified)	1
COc1cccc(C(=O)N2CCC(C(=O)NCCc3csc(-c4ccccc4)n3)CC2)c1	9
COc1cccc(CNC(=O)CN2C(=O)CCc3cc(S(=O)(=O)N4CCC(C)CC4)ccc32)c1	-33
COc1cccc(-c2nc(Cn3nnc(C(=O)Nc4ccccc4)c3C)c(C)o2)c1OC	-50
Nc1cnc(-c2ccc(F)cc2Cl)cn1	5
CC(CNC(=O)c1nc(N2CCOCC2)c2ccccc2n1)c1ccccc1 (stereo unspecified)	-57
CC(C)CN1CCN(C)C2(CCN(C(=O)c3cnc[nH]3)CC2)C1=O	-6
CC(c1nccs1)N(C)C(=O)c1ccc(CSc2ncn[nH]2)o1 (stereo unspecified)	109
CCCCOc1ccccc1-c1cc2c(=O)n(Cc3nc(-c4ccc(OC)cc4)oc3C)ccn2n1	-60
Cc1ccc(S(=O)(=O)N2CCn3nnc(COCC4CC4)c3C2)cc1F	-5
Cc1cc(=O)oc2c1C(=O)CC(C)(C)C2	12
CCCC1COCCN1C(=O)c1cccc(CC2CCNCC2)c1 (stereo unspecified)	7
Cn1cc(C2CCCCCN2C(=O)c2ccc(F)cc2)cn1 (stereo unspecified)	1
CCC(=O)NCCc1nc(N2CCOCC2)ncc1C(=O)Nc1ccccc1	-15
CN(Cc1cc2ccccc2s1)C(=O)c1cc(CN2CCOCC2)on1	-1
Cc1ccc(Cl)cc1NC(=O)c1nnn(Cc2nc(-c3cccc(Cl)c3)oc2C)c1C	56
N/C(=N\OC(=O)/C=C/c1ccccc1)c1ccc(Br)cc1	20
Cc1occc1C(=O)N1CC[C@H]2CN(S(C)(=O)=O)CCO[C@@H]2C1	-5
C#CCN(Cc1nc(-c2ccc(F)cc2F)oc1C)C1CCCCC1	1
Fc1ccc2nc(C3CCCN3Cc3nc(-c4ccco4)no3)[nH]c2c1 (stereo unspecified)	2
CN(C)C(=O)COCC1CN(c2ncc(F)cn2)Cc2ncn(C)c21 (stereo unspecified)	-6
CN1CCN2C[C@@H](NC(=O)Cc3cc4c(cc3Cl)OCCO4)C[C@H]2C1	0

(continued)
SMILES	Tg IFNy HTS
CN1CCC2(CC1)CN(C(=O)c1cccc(C#CC(C)(C)O)c1)CCN2C	-1
CCOC(=O)c1ccc(OC(=O)c2cccnc2Oc2ccccc2)c(Cl)c1	18
Cn1nnnc1SCCNC(=O)C1(c2ccccc2F)CC1	-12
CCOc1ccccc1-c1noc(-c2nnn(Cc3nc(-c4cccc(C)c4)oc3C)c2C)n1	-22
CN(C)CCN1CC(C(=O)Nc2ccc(N3CCCC3)c3nonc23)CC1=O (stereo unspecified)	11
COc1ccccc1-c1ccccc1[C@@H]1[C@@H](C#N)N(C(=O)CN(C)C)[C@@H]1CO	3
COc1ccc2cc(CN3CCN([C@H]4CCCC[C@@H]4O)CC3)c(=O)[nH]c2c1	-10
Cc1cc2c(C)nc(N3CCC(N4CCCN(C(=O)c5ccco5)CC4)CC3)nc2cc1F	-6
c1cc(C2CN(c3cc(N4CCOCC4)ncn3)C2)ccn1	16
Cc1cc(C)cc(NC(=O)c2cncc(NS(=O)(=O)c3ccc(Br)cc3)c2)c1	22
Cc1ccc(NC(=O)CSc2nc(C)cc(=O)[nH]2)c(C)c1	32
C[C@H]1CCCCO[C@@H](CN(C)Cc2ccc(C(F)(F)F)cc2)[C@@H](C)CN([C@@H](C)CO)C(=O)c2cc(NC(=O)Nc3cccc4ccccc34)ccc2O1	i
C/C(=C/c1ccc(C(=O)O)cc1)c1ccc2c(c1)C(C)(C)CCC2(C)C	5
CC(=O)N1CCS(=O)(=O)[C@H]2CCN(S(=O)(=O)Cc3ccccc3)CC[C@@H]21	-59
Cc1n[nH]c(C)c1C(NC(=O)c1ccc(N(C)C)cc1)C(=O)O (stereo unspecified)	-37
CC(=O)Nc1ccc(Cl)c(C(=O)N(C)C2CCOC(C)(C)C2)c1 (stereo unspecified)	6
O=C(O)COc1ccccc1CN1CCCC2(C1)C(=O)Nc1ccccc12 (stereo unspecified)	-3

Source: PubChem (Broad Institute)

An excerpt; count on the stated rates, not on these rows.
